# Screens deposited in PubChem BioAssay by National Center for Advancing Translational Sciences (NCATS).
# D2 agonist – human D2 receptor agonism in beta-arrestin assay; activation, % (concentration not given with the values); DiscoveRx PathHunter D2 beta-arrestin, luminescence, 90 min; 100% = 57 uM dopamine signal; P14416; hit rate 0.084% among 360,000; in the data active = activation above about 40%; inconclusive = about 15% to 40%; inactive = below about 15%; note: compound concentration not given in the record; the text of the record calls up to 30% inactive
# Target sequence (P14416 whole entry, looked up): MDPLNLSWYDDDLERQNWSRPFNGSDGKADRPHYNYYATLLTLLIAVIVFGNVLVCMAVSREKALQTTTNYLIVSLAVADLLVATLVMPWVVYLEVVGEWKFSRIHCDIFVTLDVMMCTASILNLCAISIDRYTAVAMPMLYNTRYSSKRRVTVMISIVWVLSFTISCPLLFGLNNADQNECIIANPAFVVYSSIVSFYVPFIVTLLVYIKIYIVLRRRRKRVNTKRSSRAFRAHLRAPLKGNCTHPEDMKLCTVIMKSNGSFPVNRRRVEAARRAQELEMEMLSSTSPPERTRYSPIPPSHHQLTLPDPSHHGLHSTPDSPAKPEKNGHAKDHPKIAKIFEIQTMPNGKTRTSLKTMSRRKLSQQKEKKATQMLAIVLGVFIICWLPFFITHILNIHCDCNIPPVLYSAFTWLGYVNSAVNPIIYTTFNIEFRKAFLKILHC
#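 DiscoveRx PathHunter D2 beta-arrestin cells (2,100/well) attached overnight, then compound-stimulated 90 min at 37 C in HBSS/10 mM HEPES/0.1% Tween-20 buffer; beta-galactosidase complementation read by luminescence after 1 h at ambient temperature. Dopamine 57 uM final (EC100) as control.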
# PINK1 expr mod – changes PINK1 expression. PINK1 immunofluorescence, high-content cytometry, 24 h. Potency, µM (series often up to 76.6 µM), for the others: at the highest dose activation (PINK1 increase), most hits filed as activators. hit rate 0.2% among 410,000. AID 624263; active = well fitted activation curve with a large enough effect; inconclusive = small, poorly fitted or top-dose-only effect; inactive = flat fitted curve, though single readings scatter; cell line not stated here;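 note: potency is the fitted concentration of half-maximal effect; % of control where 0% means no effect; nearly all actives have a fitted effect of over 65% in size; a mitochondrial uncoupler was the plate control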
#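 Stable cell line treated 24 h with compounds at 5 concentrations (CCCP controls), then fixed and immunostained for PINK1 plus nuclear and cell stains; PINK1 immunofluorescence quantified by laser-scanning microplate cytometry.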
# D2 PAM – positive allosteric modulators of human D2 dopamine receptor; DiscoveRx D2 beta-arrestin cells, luminescence, 90 min; 100% = 57 uM dopamine signal; potentiation, % (no concentration beside the values); P14416; hit rate 0.23% among 360,000; active = potentiation of 50% or more; inconclusive = 30% to 50%; inactive = 30% or less;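 note: compound concentration not given in the record; tested on top of an EC20 dose of dopamine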
#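 PathHunter beta-arrestin assay in DiscoveRx D2 cells. Compounds were added with an EC20 of dopamine (50 nM final) for 90 min at 37 deg C. Luminescence was read 1 h after detection reagent, with 57 uM dopamine as the EC100 control.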
# CtBP-E1A blk – inhibitors of CtBP/E1A interaction. AlphaScreen GST-E1A/His-CtBP binding, 1536-well; active compounds read low; control for the full effect not named in the record. activity change, % (test concentration not listed). hit rate 0.49% among 340,000. AID 651724; in the data active means activity change below about -65%; inconclusive means about -30% to -65%; inactive means above about -30%; note: % is set by controls: 0 for no effect and ±100 for the full control effect
#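 Protein mix (5X: 125 nM each GST-E1A, His-CtBP) was incubated with pinned compound 2 h at 37 deg C in dark, in 50 mM Tris pH 8.0 buffer with 300 mM NaCl. Glutathione donor and nickel acceptor beads followed; AlphaScreen signal read after 1 h.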
# TRPML1 agonist – human mucolipin-1 channel agonism | hit rate 0.12% among 410,000 | activation, % (no concentration beside the values) | Q9GZU1 | TRPML1-expressing cells, Ca2+ dye fluorescence, FDSS; host cell line not named in the record; reference of the full effect not given here; in the data active = activation above about 50%; inconclusive = about 30% to 50%; inactive = below about 30%; note: 0% is about no effect; the text of the record puts the active cut at 80%
# Target sequence (Q9GZU1 whole entry, looked up): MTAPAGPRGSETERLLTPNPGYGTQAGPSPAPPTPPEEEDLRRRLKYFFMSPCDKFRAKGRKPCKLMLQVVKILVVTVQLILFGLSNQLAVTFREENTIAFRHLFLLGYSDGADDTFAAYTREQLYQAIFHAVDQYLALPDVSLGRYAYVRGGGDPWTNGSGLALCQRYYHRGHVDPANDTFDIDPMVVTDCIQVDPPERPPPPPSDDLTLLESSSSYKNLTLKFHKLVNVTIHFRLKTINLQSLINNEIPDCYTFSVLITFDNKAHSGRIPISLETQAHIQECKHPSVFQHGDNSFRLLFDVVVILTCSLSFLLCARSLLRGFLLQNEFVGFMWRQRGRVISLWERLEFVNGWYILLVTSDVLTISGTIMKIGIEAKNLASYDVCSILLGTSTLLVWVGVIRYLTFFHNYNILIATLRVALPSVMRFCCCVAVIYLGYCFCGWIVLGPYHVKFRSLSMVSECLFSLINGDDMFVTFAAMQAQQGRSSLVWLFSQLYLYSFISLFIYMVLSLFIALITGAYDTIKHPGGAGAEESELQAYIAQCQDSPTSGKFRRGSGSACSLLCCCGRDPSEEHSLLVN
#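 Kinetic FDSS Ca2+ read in Tet-induced TRPML1-DL cells (ABD Ca8 dye plus quencher, 45-90 min RT loading): baseline, then compound, then 110 s agonist window; EC80 agonist 54-4 at 4uM final added afterwards for a 110 s antagonist window.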
# Six1-Eya2 inh – blocks human Six1 binding to Eya2. AlphaScreen GST-Six1/His-Eya2 binding, biochemical; active compounds read low; control for the full effect not named in the record. activity change, % (test concentration not listed). hit rate 0.56% among 360,000. Q15475+O00167; in the data active = activity change below about -65%; inconclusive = about -30% to -65%; inactive = above about -30%; note: % is set by controls: 0 for no effect and ±100 for the full control effect
#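 Six1/Eya2 binding was read as AlphaScreen signal after compounds were pinned into GST-Six1 plus His-tagged Eya2 (5X stock 250/500 nM) in pH 8.0 Tris/NaCl/TCEP buffer, beads added, then incubated 1 h, 37 C, dark.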
# Numbers without * were called inactive; u = inconclusive; x = not tested or not shown; & = joins results of further samples; [ ] = another dose, or the depositor's remark.
SMILES,D2 agonist,PINK1 expr mod,D2 PAM,CtBP-E1A blk,TRPML1 agonist,Six1-Eya2 inh
Cc1ccccc1NC(=O)c1ccc(CN2CCC(Cc3ccccc3)CC2)cc1,-1.6,2.3%,-37,-9,-0.9,-10
CCCCn1c(N)c(N(CCC(C)C)C(=O)COC(=O)c2ccc3ccccc3c2)c(=O)[nH]c1=O,0.1,-3.6%,-19,-18,2.9,7
CCOC(=O)c1c(C)[nH]c(C)c1S(=O)(=O)N(C)CC(=O)N(C)Cc1ccccc1,-2.7,2.3%,-4,-9,-0.4,-1
COc1ccc(C)cc1NC(=O)c1ccc(NS(=O)(=O)c2c(C)noc2C)cc1,-0.6,-0.1%&2.6%,-5,2,0.3&-1.2,-5
Cc1ccc(Nc2cc(C)nc3c(C)cccc23)cc1,1.5,1.0%,-16,-9,-0.6,-8
CC(C)(C)c1cc[n+](-c2[nH]c(=O)sc2/C=N/NC(=O)c2ccccc2[O-])cc1,-2.1,-1.1%,-6,15,3.1,-1
CC(=O)Nc1cccc(OCC(=O)Nc2cccc(S(=O)(=O)N3CCCC3)c2)c1,-2.0,-0.8%,7,0,-0.6,-7
Cc1ccccc1CSc1nnc(Cn2c(=O)sc3ccccc32)n1C,-12,-0.4%,-4,-1,-0.1,0
CCOc1ccc(NC(=O)C2CC=CCC2C(=O)O)cc1 (configuration not stated),-0.7,1.1%[38.3 µM],-5,14,0.8,2
CCOC(=O)c1sc(NC(=O)c2cc(S(=O)(=O)N3CCOCC3)ccc2C)nc1C,-3.5,1.1%,-9,-9,0.8,-12
CCn1c(=S)sc2c(=O)n(-c3ccccc3)c(=S)[nH]c21,1.3,-0.9%,3,-2,-0.6,-3
CCSc1ccccc1C(=O)Nc1ccc2c(c1)OCO2,0.8,0.9%,-10,0,-0.1,1
Cc1cccc(C)c1NC(=O)CNC(=O)c1ccc2nc[nH]c2c1,0.7,-0.6%,2,0,0.1,2
O=C(CNC(=O)c1ccc2c(c1)OCCO2)N=Nc1c(O)[nH]c2ccccc12,-6.6,-0.6%,-14,2,0.4,3
O=C(c1ccc(Cl)cc1)[C@@H]1[C@@H]2C(=O)N(c3cccc4ccccc34)C(=O)[C@@H]2C2c3ccccc3C=NN21 (some centres not stated),-4.6,-1.7%,-4,-14,21,-7
O=C(c1ccccc1)c1cccn1CC(=O)N1CCc2ccccc2C1,-8.3,0.9%,-26,4,-0.7,-1
CCCCc1cc2ccccc2c(OCCN(C)C)n1,-1.4,11%,-3,-25,2.2,-28
CC(=O)NCC(=O)N(C)C(C(=O)Nc1ccc2c(c1)OCCO2)c1ccc(C)cc1 (configuration not stated),-2.2,-1.3%,-3,-5,-0.1,0
CC(=O)Nc1cccc(Nc2nc(-c3ccccc3F)nc3ccccc23)c1,-0.7,2.1%,-4,4,0.7,6
CCn1c(SCC(N)=O)nc2c1c(=O)n(C)c(=O)n2C,0.6,2.4%[38.3 µM],-7,-3,-0.2,0

# Given with two lines to a compound: part of the list above.
# Sequence of screens: D2 agonist, PINK1 expr mod, D2 PAM, CtBP-E1A blk, TRPML1 agonist, Six1-Eya2 inh
> CCOC(=O)c1sc(NC(=O)c2cc(S(=O)(=O)N3CCOCC3)ccc2C)nc1C
→ -3.5, 1.1%, -9, -9, 0.8, -12
> O=C(CNC(=O)c1ccc2c(c1)OCCO2)N=Nc1c(O)[nH]c2ccccc12
→ -6.6, -0.6%, -14, 2, 0.4, 3
> CCSc1ccccc1C(=O)Nc1ccc2c(c1)OCO2
→ 0.8, 0.9%, -10, 0, -0.1, 1

# (listing goes on)
SMILES,D2 agonist,PINK1 expr mod,D2 PAM,CtBP-E1A blk,TRPML1 agonist,Six1-Eya2 inh
COc1ccc(C(=O)CSc2nc3[nH]ncc3c(=O)[nH]2)cc1,-1.8,0.3%,-2,1,-0.1,2
O=C(CN1c2cccc3cccc(c23)S1(=O)=O)N1CCN(c2ccccc2)CC1,1.2,1.1%,4,-20,2.8,1
Cc1ccc(S(=O)(=O)CCC(=O)OCC(=O)Nc2sccc2C#N)cc1,0.4,0.8%,-2,-12,-0.1,u
CC1CCN(C(=S)c2cn(Cc3cccc(F)c3)c3ccccc23)CC1,-4.7,-0.3%,-10,-22,-0.1,u
CC(NC(=O)Nc1ccccc1O)(C(F)(F)F)C(F)(F)F,2.0,0.2%,-5,0,0.3,1
CCN(CC)CCN(Cc1cc2cc3c(cc2[nH]c1=O)OCO3)C(=S)NCCCN(C)C,-2.5,1.0%,-25,-12,0.4,-2
Cc1cc(N)c(-n2cc3c(=O)n(C)c(=O)n(C)c3c2)cc1C,-3.1,5.5%,-14,-9,0.6,7
C=CCN1C(=O)c2cccc3c(Br)ccc(c23)C1=O,-0.2,2.3%,-1,0,0.1,5
COc1ccc(NCC(=O)n2c(C)c(C)c3ccccc32)cc1,-4.6,0.5%,-3,-9,1.0,-13
C=CCN1C(=O)NC(c2ccc(OC)cc2)(C(F)(F)F)S/C1=C(\C#N)c1nnc(N2CCOCC2)n1-c1ccccc1 (configuration not stated),-3.3,7.5%,-7,7,0.1,-5
CC(Oc1ccc(Br)cc1Br)C(=O)Nc1cccnc1 (configuration not stated),-1.2,-0.4%,-14,1,0.4,-20
COc1ccccc1-c1cnc(C(O)c2c(C)cc(C)cc2C)[nH]1 (configuration not stated),-5.5,1.6%,-22,-19,0.0,2
CC1C/C(=N/NC(=O)c2cccs2)CC(C)(C)C1 (configuration not stated),-3.9,29%[38.3 µM],1,11,-0.6,3
COc1ccc(Cl)cc1NC(=O)CN1C(=O)NC(Cc2c[nH]c3ccccc23)C1=O (configuration not stated),-3.9,-0.3%,1,0,1.9,0
Cc1ccc(OCC(COCc2ccccc2)NC(C)C)cc1 (configuration not stated),0.4,6.8%,-19,11,1.9,20
C/C(=N\Nc1cc(Cl)nc(C)n1)c1ccccc1,0.8,-19%[38.3 µM],-10,-2,0.2,-2
Nc1ccc(N2CCN(C(=O)c3cccs3)CC2)cc1,3.3,-0.3%,22,-27,-0.9,-30
COCCNC(=O)CCn1nc(-c2ccc(Cl)cc2)ccc1=O,-2.4,2.3%,-1,-1,-0.9,-2
C[C@H](CO)N1C[C@H](C)[C@@H](CN(C)S(C)(=O)=O)OCc2cnnn2CCCC1=O,-2.3,-0.9%,x,1,x,7
CCOC(=O)c1c(C)oc2ccc(OCC(N)=O)cc12,0.1,-5.9%[38.3 µM],-7,-11,-0.6,-7
O=c1c2sccc2n(Cc2ccc(F)cc2)c(=O)n1-c1ccc(F)cc1,1.4,2.3%,-15,2,0.0,0
Cc1ccc(S(=O)(=O)NCC(=O)N(CC(=O)NCc2ccccc2)CC2CCCO2)cc1 (configuration not stated),0.6,-2.6%,-12,-4,1.6,3
CCc1nc(N2CCN(C(C)=O)CC2)c2c3c(sc2n1)CCCC3,-0.6,-0.7%,29,x,x,-2
CCCCn1c(-c2cc(Cl)ccc2OC)n[nH]c1=S,1.7,3.6%[38.3 µM],9,-2,-0.1,-1
CC1(C)Cc2[nH]c3ccccc3c2C(C)(C)N1,-4.2,0.6%,-4,x,0.4,-16
COc1ccc(O)c(C(=O)CC(=O)c2cccnc2)c1,-0.7,-1.3%,-10,-4,-0.5,-12
CN(C(=O)COC(=O)C(Cc1ccccc1)NC(=O)c1ccccc1)c1ccccc1 (configuration not stated),-0.2,-1.4%,-11,-9,1.7,3
Cc1nc2ccccc2c2oc(C(=O)N3CCN(C4CCCCC4)CC3)cc12,-1.2,2.4%,-8,-12,0.3,-16
CCCC(=O)N=c1sc2cccc(F)c2n1C,-2.6,0.4%,-6,14,0.0,15
O=C(c1cccc(F)c1)N1CCN(c2ccc([N+](=O)[O-])c3cccnc23)CC1,-1.2,2.2%,-30,13,-1.1,-10
CC(C)c1ccc(-n2nc3ccc(N)cc3n2)cc1,-7.2,17%,-13,-14,0.8,4
CCOC(=O)Cc1csc(NS(C)(=O)=O)n1,-1.8,3.9%[38.3 µM],3,-4,0.4,5
Cc1cc(Cl)ccc1OCC(=O)OCC(=O)Nc1cccnc1Cl,-3.8,-0.1%,1,x,-1.1,6
C=CCC(C)(NCc1ccccc1)c1ccc(C)cc1 (configuration not stated),-2.7,7.4%,-25,2,1.6,33
Cc1sc2nc(CN(CCc3ccccc3)C(=O)c3ccco3)[nH]c(=O)c2c1C,-2.6,4.5%,-16,1,-0.8,0
CC(=O)c1c(C)[nH]c(C(=O)Nc2ccc(C)c(S(=O)(=O)N(C)C)c2)c1C,-4.5,8.9%,-26,-3,-1.1,-23
O=C(NC1CCCCCCC1)c1ccc(S(=O)(=O)N2CCCC2)cc1,-0.3,-2.6%,-11,1,0.3,-3
COc1ccc(NC(=O)CC2CCCC2)cc1OC,4.2,1.1%,-2,0,0.8,19
O=C(NCc1ccccc1)c1ccc2c(c1)S(=O)(=O)c1cc(Cl)ccc1C2=O,3.7,-0.1%,u,-3,-0.6,-4
CCCOC(=O)CSC1=C(C#N)C(c2ccc3c(c2)OCO3)CC(=O)N1 (configuration not stated),-2.1,14%,-6,-2,-0.4,0

# 4 compounds from above, arranged by number of heavy atoms, low to high.
SMILES,D2 agonist,PINK1 expr mod,D2 PAM,CtBP-E1A blk,TRPML1 agonist,Six1-Eya2 inh
CC1(C)Cc2[nH]c3ccccc3c2C(C)(C)N1,-4.2,0.6%,-4,x,0.4,-16
COc1ccc(O)c(C(=O)CC(=O)c2cccnc2)c1,-0.7,-1.3%,-10,-4,-0.5,-12
CCc1nc(N2CCN(C(C)=O)CC2)c2c3c(sc2n1)CCCC3,-0.6,-0.7%,29,x,x,-2
O=C(NCc1ccccc1)c1ccc2c(c1)S(=O)(=O)c1cc(Cl)ccc1C2=O,3.7,-0.1%,u,-3,-0.6,-4

# Further records follow:
SMILES,D2 agonist,PINK1 expr mod,D2 PAM,CtBP-E1A blk,TRPML1 agonist,Six1-Eya2 inh
CC(=O)c1ccc(N2CCN(C(C)C(=O)NC3CCCc4ccccc43)CC2)cc1 (configuration not stated),-2.4,-2.0%,-3,-2,1.5,6
CCOC(=O)CSc1nc2cc(S(=O)(=O)Nc3ccccc3OC)ccc2o1,-2.0,5.7%[38.3 µM],-8,-4,1.5,-1
O=C(NC1CCCC1)c1cc2cc(Br)ccc2o1,-4.0,4.4%,-9,5,-0.3,6
O=C(CCS(=O)(=O)c1ccc(F)cc1)Nc1nnc(-c2cccs2)o1,2.4,-2.8%,-11,0,0.9,-12
CCOc1ccc(C(=O)C[n+]2ccc(C(=O)NCCO)cc2)cc1,3.8,-0.8%,-4,6,-0.6,0
COc1ccc(Cc2nnc(SCC(=O)NCc3ccco3)o2)cc1,-2.1,0.7%,-4,-3,0.5,-1
O=c1c([N+](=O)[O-])c(N2CCCC2)c2ccccc2n1-c1ccccc1,-1.6,0.5%,-5,5,-0.6,3
Oc1ccc(-c2nc(=S)[nH][nH]2)cc1,-2.0,-1.6%,-4,4,0.0,5
CCCS(=O)(=O)c1c(S(=O)(=O)CCC)c2c(N)cccn2c1C(=O)OC,0.9,3.6%,-8,-11,2.1,3
